Screens as filed in PubChem BioAssay.
Vaccinia stage: blocks a specific stage of Vaccinia orthopoxvirus infection; actives 0.01% (n = 89,000); activity change (mCherry), % (no concentration beside the values); Vaccinia-infected cells, mCherry/Venus stage reporter fluorescence; stronger effect = lower value; some inactives read as strong as hits;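 active means mCherry past -33% and 40 or more points under the early reporter, replicates agreeing; inconclusive means past -33% without that gap or agreement; tested in A549 cells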;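 further: scaled between vehicle wells and reference inhibitor wells; 23 nL library stock went into each well; one replicate is shown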
Vaccinia stage Venus: recorded beside Vaccinia stage, whose call it bears; activity change (Venus), %; measured here: Venus reporter, other viral stage;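 negative = less Venus signal; first of two replicates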
* marks the source's active call; other numbers are inactive results.

Screening COc1ccc(C#Cc2cnc3c(c2)C(=O)N([C@@H](C)CO)C[C@H](C)[C@@H](CN(C)C(=O)CC2CC2)O3)cc1 returned Vaccinia stage -2 and Vaccinia stage Venus -8.
Screening COCCNC(=O)C[C@H]1CC[C@@H]2[C@H](COC[C@@H](O)CN2C(=O)Nc2ccc3c(c2)OCO3)O1 returned Vaccinia stage 13 and Vaccinia stage Venus 11.
`CC(C)NC(=O)N(C)C[C@@H]1Oc2c(NS(=O)(=O)c3cn(C)cn3)cccc2C(=O)N([C@H](C)CO)C[C@@H]1C` gave Vaccinia stage 4 and Vaccinia stage Venus -3.
For C[C@@H]1CCCCO[C@@H](CN(C)S(=O)(=O)c2cccs2)[C@H](C)CN([C@H](C)CO)C(=O)c2cc(NC(=O)Nc3ccc(F)cc3)ccc2O1 the results were Vaccinia stage 4 and Vaccinia stage Venus 23.
For COCC#Cc1cnc2c(c1)C(=O)N([C@H](C)CO)C[C@@H](C)[C@@H](CN(C)C(=O)c1cccnc1)O2 the results were Vaccinia stage 14 and Vaccinia stage Venus 7.
`C[C@@H]1CN([C@@H](C)CO)C(=O)c2cc(C#CCc3ccccc3)cnc2O[C@@H]1CN(C)Cc1ccc(C(=O)O)cc1` gave Vaccinia stage 5 and Vaccinia stage Venus 1.
For O=C(O)C[C@H]1CC[C@H](NC(=O)c2ccccc2F)[C@H](CO)O1 the results were Vaccinia stage 10 and Vaccinia stage Venus 3.
Screening O=C(Cc1ccccc1)N1CCCCN2[C@@H](CO)[C@H](c3ccc(C#CC4(O)CCCC4)cc3)[C@@H]2C1 returned Vaccinia stage -3 and Vaccinia stage Venus -12.
C[C@@H]1CN([C@H](C)CO)C(=O)c2cc(NS(=O)(=O)c3ccc(Cl)cc3)ccc2O[C@@H](C)CCCCO[C@@H]1CN(C)C(=O)Cc1ccccc1 was read as Vaccinia stage inconclusive.
Screening COc1ccc(NC(=O)N(C)C[C@@H]2OCc3ccccc3-c3c(n(C)c4ccccc34)C(=O)N([C@@H](C)CO)C[C@H]2C)cc1 returned Vaccinia stage inconclusive.

Reprinted from the part before: four compounds, followed by the next part.
For O=C(O)C[C@H]1CC[C@H](NC(=O)c2ccccc2F)[C@H](CO)O1 the results were Vaccinia stage 10 and Vaccinia stage Venus 3.
Screening O=C(Cc1ccccc1)N1CCCCN2[C@@H](CO)[C@H](c3ccc(C#CC4(O)CCCC4)cc3)[C@@H]2C1 returned Vaccinia stage -3 and Vaccinia stage Venus -12.
C[C@@H]1CN([C@H](C)CO)C(=O)c2cc(NS(=O)(=O)c3ccc(Cl)cc3)ccc2O[C@@H](C)CCCCO[C@@H]1CN(C)C(=O)Cc1ccccc1 was read as Vaccinia stage inconclusive.
Screening COc1ccc(NC(=O)N(C)C[C@@H]2OCc3ccccc3-c3c(n(C)c4ccccc34)C(=O)N([C@@H](C)CO)C[C@H]2C)cc1 returned Vaccinia stage inconclusive.
For C[C@@H]1CN([C@@H](C)CO)C(=O)c2cc(NS(=O)(=O)c3ccc(F)cc3)ccc2O[C@@H](C)CCCCO[C@@H]1CN(C)S(=O)(=O)c1cccs1 the results were Vaccinia stage -19 and Vaccinia stage Venus -6.
`C[C@@H]1CN([C@H](C)CO)C(=O)c2cccc(NS(=O)(=O)c3ccc(F)cc3)c2O[C@H]1CN(C)S(=O)(=O)c1cccs1` gave Vaccinia stage 17 and Vaccinia stage Venus 9.
`COc1ccc2c3c(n(C)c2c1)[C@@H](CO)N(C(=O)c1ccncc1)CC31CN(C)C1` gave Vaccinia stage 11 and Vaccinia stage Venus 2.
Screening C[C@H](CO)N1C[C@H](C)[C@H](CN(C)C(=O)C2CCC2)Oc2cc(C#Cc3ccncc3)ccc2S1(=O)=O returned Vaccinia stage inconclusive.
O=C(NC1CCC1)[C@@H]1[C@@H](CO)[C@@H]2Cn3c(ccc(/C=C/c4ccccc4)c3=O)[C@@H]2N1Cc1ccncc1 was read as Vaccinia stage -2 and Vaccinia stage Venus 9.
C[C@@H]1CN([C@H](C)CO)C(=O)c2cc(N(C)C)ccc2O[C@@H](C)CCCCO[C@@H]1CN(C)Cc1ccccc1 was read as Vaccinia stage -24 and Vaccinia stage Venus -8.
Screening C[C@@H]1CN([C@@H](C)CO)C(=O)c2cc(NC(=O)Nc3ccc(F)cc3)ccc2O[C@@H](C)CCCCO[C@@H]1CN(C)Cc1ccc(C(F)(F)F)cc1 returned Vaccinia stage -24 and Vaccinia stage Venus -22.
O=C(C1CCCC1)N1CCCCN2[C@H](CO)[C@H](c3ccc(-c4cccc(F)c4)cc3)[C@@H]2C1 was read as Vaccinia stage inconclusive.
COc1ccc(-c2ccc([C@@H]3[C@@H](CO)N4C(=O)CN(C(=O)NC(C)C)C[C@H]34)cc2)cc1 was read as Vaccinia stage 22 and Vaccinia stage Venus 23.
`Cc1noc(C)c1S(=O)(=O)N(C)C[C@H]1Oc2ccc(NS(=O)(=O)c3ccc(F)cc3)cc2CC(=O)N([C@H](C)CO)C[C@H]1C` gave Vaccinia stage 12 and Vaccinia stage Venus 10.

Next section (four carried over from the part before).
Screening C[C@@H]1CN([C@@H](C)CO)C(=O)c2cc(NC(=O)Nc3ccc(F)cc3)ccc2O[C@@H](C)CCCCO[C@@H]1CN(C)Cc1ccc(C(F)(F)F)cc1 returned Vaccinia stage -24 and Vaccinia stage Venus -22.
O=C(C1CCCC1)N1CCCCN2[C@H](CO)[C@H](c3ccc(-c4cccc(F)c4)cc3)[C@@H]2C1 was read as Vaccinia stage inconclusive.
COc1ccc(-c2ccc([C@@H]3[C@@H](CO)N4C(=O)CN(C(=O)NC(C)C)C[C@H]34)cc2)cc1 was read as Vaccinia stage 22 and Vaccinia stage Venus 23.
`Cc1noc(C)c1S(=O)(=O)N(C)C[C@H]1Oc2ccc(NS(=O)(=O)c3ccc(F)cc3)cc2CC(=O)N([C@H](C)CO)C[C@H]1C` gave Vaccinia stage 12 and Vaccinia stage Venus 10.
Screening C[C@H]1CN([C@@H](C)CO)C(=O)c2cc(NC(=O)C3CC3)ccc2O[C@H]1CN(C)S(C)(=O)=O returned Vaccinia stage 4 and Vaccinia stage Venus 2.
For CCC(=O)N1CCCCN2[C@H](C1)[C@H](c1ccc(C#Cc3cccnc3)cc1)[C@@H]2CO the results were Vaccinia stage -7 and Vaccinia stage Venus -4.
`O=C(O)C[C@H]1C[C@H]2c3cc(NC(=O)Cc4ccncc4)ccc3O[C@H]2[C@H](CO)O1` gave Vaccinia stage 1 and Vaccinia stage Venus -1.
O=C(Cc1ccncc1)N1CC(=O)N2[C@@H](CO)[C@H](c3ccc(C4=CCCC4)cc3)[C@@H]2C1 was read as Vaccinia stage 14 and Vaccinia stage Venus 5.
C[C@@H]1CN([C@@H](C)CO)C(=O)CCCn2nncc2CO[C@@H]1CN(C)C(=O)Nc1ccc(C(F)(F)F)cc1 was read as Vaccinia stage 17 and Vaccinia stage Venus 20.
Screening COCC#Cc1cnc2c(c1)C(=O)N([C@@H](C)CO)C[C@H](C)[C@H](CN(C)C(=O)c1ccc(F)cc1)O2 returned Vaccinia stage 19 and Vaccinia stage Venus 12.
C/C=C/c1ccc([C@H]2[C@@H](CO)N(c3ncc(CC)s3)[C@H]2C#N)cc1 was read as Vaccinia stage 5 and Vaccinia stage Venus -5.
COc1cccc(-c2cnc3c(c2)C(=O)N([C@@H](C)CO)C[C@@H](C)[C@@H](CN(C)Cc2cccnc2)O3)c1 was read as Vaccinia stage 8 and Vaccinia stage Venus 2.
For Cc1ccccc1-c1ccccc1[C@H]1[C@@H](C#N)N(C(=O)c2ccccc2)[C@@H]1CO the results were Vaccinia stage inconclusive.
For CCCNC(=O)N(C)C[C@H]1Oc2cc(C3=CCCC3)ccc2S(=O)(=O)N([C@H](C)CO)C[C@@H]1C the results were Vaccinia stage 10 and Vaccinia stage Venus 0.
Screening CCC(=O)Nc1ccc2c(c1)OC[C@H](C)N(Cc1cccc(F)c1)C[C@@H](C)[C@H](OC)CN(C)C2=O returned Vaccinia stage -8 and Vaccinia stage Venus -2.
`C[C@H](CO)N1C[C@H](C)[C@H](CN(C)C(=O)c2ccccn2)Oc2cc(C#Cc3ccccc3)ccc2S1(=O)=O` gave Vaccinia stage inconclusive.
Screening C[C@@H]1CN([C@@H](C)CO)C(=O)c2cccc(NC(=O)c3nc4ccccc4s3)c2O[C@H]1CN(C)S(=O)(=O)c1cccs1 returned Vaccinia stage -27 and Vaccinia stage Venus -22.
Screening O=C(c1ccccc1F)N1C[C@H]2[C@@H](c3ccccc31)[C@H](CO)N2C(=O)C1CCCC1 returned Vaccinia stage 30 and Vaccinia stage Venus 30.
Screening O=C(C[C@@H]1CC[C@@H]2[C@H](COC[C@H](O)CN2S(=O)(=O)c2cccc(Cl)c2)O1)Nc1ccc(-c2ccccc2)cc1 returned Vaccinia stage -16 and Vaccinia stage Venus -8.
COCC(=O)N[C@H]1C=C[C@H](CC(=O)NCc2ccc(Cl)cc2)O[C@@H]1CO was read as Vaccinia stage 6 and Vaccinia stage Venus 1.
Screening Cc1noc(C)c1S(=O)(=O)Nc1cccc2c1O[C@@H](CN(C)S(=O)(=O)c1cn(C)cn1)[C@@H](C)CN([C@H](C)CO)C2=O returned Vaccinia stage 6 and Vaccinia stage Venus -3.
O=C(C[C@H]1C=C[C@H](NC(=O)c2ccccn2)[C@H](CO)O1)NCc1cccc(F)c1 was read as Vaccinia stage 11 and Vaccinia stage Venus 3.
Cc1noc(C)c1S(=O)(=O)Nc1ccc2c(c1)C(=O)N([C@@H](C)CO)C[C@H](C)[C@@H](CN(C)Cc1ccc(C(F)(F)F)cc1)OCCCC[C@H](C)O2 was read as Vaccinia stage inconclusive.
Screening C[C@H](CO)N1C[C@H](C)[C@@H](CN(C)CC2CCCCC2)OCCCC[C@H](C)Oc2ccc(NC(=O)CCCCCC(=O)Nc3ccccc3N)cc2C1=O returned Vaccinia stage 1 and Vaccinia stage Venus 8.
Screening C[C@H]1CCCCO[C@@H](CN(C)S(=O)(=O)c2cccs2)[C@@H](C)CN([C@@H](C)CO)C(=O)c2cc(NS(=O)(=O)c3ccc(Cl)cc3)ccc2O1 returned Vaccinia stage -31 and Vaccinia stage Venus -23.
O=C(NCC[C@H]1CC[C@H](NC(=O)C2CCCCC2)[C@@H](CO)O1)c1cnccn1 was read as Vaccinia stage 3 and Vaccinia stage Venus 0.
Cc1ccc(-c2ccc3c(c2)O[C@H](CN(C)Cc2ccccn2)[C@H](C)CN([C@@H](C)CO)S3(=O)=O)cc1 was read as Vaccinia stage inconclusive.
CC(C)NC(=O)Nc1ccc2c(c1)C(=O)N([C@H](C)CO)C[C@H](C)[C@@H](CN(C)S(=O)(=O)c1ccc(Cl)cc1)OCCCC[C@@H](C)O2 was read as Vaccinia stage 11 and Vaccinia stage Venus -2.
O=C(CC1CC1)Nc1ccc2c(c1)[C@@H]1C[C@H](CC(=O)N3CCCCC3)O[C@H](CO)[C@@H]1O2 was read as Vaccinia stage 10 and Vaccinia stage Venus 1.
`C[C@@H]1CN([C@@H](C)CO)C(=O)c2cc(NS(=O)(=O)c3cn(C)cn3)ccc2O[C@@H](C)CCCCO[C@@H]1CN(C)C(=O)c1ccccc1` gave Vaccinia stage 15 and Vaccinia stage Venus 5.
C[C@@H]1CCCCO[C@@H](CN(C)S(=O)(=O)c2ccccc2)[C@@H](C)CN([C@H](C)CO)C(=O)c2cc(NC(=O)Nc3ccccc3)ccc2O1 was read as Vaccinia stage 29 and Vaccinia stage Venus 14.
Screening CO[C@H]1CN(C)C(=O)c2cc(NC(C)=O)ccc2OC[C@@H](C)N(C(=O)CC2CC2)C[C@@H]1C returned Vaccinia stage 17 and Vaccinia stage Venus 12.
`CCCNC(=O)N1[C@H](CO)[C@@H]2c3ccccc3N(C(=O)C3CCC3)C[C@@H]21` gave Vaccinia stage 14 and Vaccinia stage Venus 17.
Screening C[C@H]1CN([C@@H](C)CO)C(=O)c2cc(-c3cccc(C#N)c3)cnc2O[C@@H]1CN(C)Cc1cncnc1 returned Vaccinia stage 20 and Vaccinia stage Venus 6.
For Cc1noc(C)c1S(=O)(=O)Nc1ccc2c(c1)C(=O)N([C@H](C)CO)C[C@@H](C)[C@H](CN(C)Cc1ccc(Cl)c(Cl)c1)OCCCC[C@@H](C)O2 the results were Vaccinia stage inconclusive.
Screening C[C@@H]1CN([C@H](C)CO)C(=O)Cc2cc(NC(=O)Nc3ccccc3)ccc2O[C@H]1CN(C)C(=O)Nc1ccc2c(c1)OCO2 returned Vaccinia stage 9 and Vaccinia stage Venus -2.
`CN(C)C(=O)C[C@H]1CC[C@H]2[C@@H](COC[C@@H](O)CN2CC2CC2)O1` gave Vaccinia stage 1 and Vaccinia stage Venus 6.
`O=C(C[C@@H]1CC[C@H]2[C@@H](COC[C@H](O)CN2Cc2cccc(C(F)(F)F)c2)O1)NCc1ccncc1` gave Vaccinia stage -6 and Vaccinia stage Venus -1.
O=C(CCN1CCCCC1)NCC[C@H]1CC[C@H](NS(=O)(=O)c2cccc(F)c2)[C@H](CO)O1 was read as Vaccinia stage -16 and Vaccinia stage Venus -7.
CC(C)CC#Cc1ccc2c(c1)O[C@H](CN(C)S(=O)(=O)c1ccc(F)cc1)[C@@H](C)CN([C@H](C)CO)S2(=O)=O was read as Vaccinia stage inconclusive.
`Cc1noc(C)c1NC(=O)Nc1ccc2c(c1)C(=O)N([C@@H](C)CO)C[C@H](C)[C@@H](CN(C)Cc1ccc(-c3ccccc3)cc1)O2` gave Vaccinia stage 10 and Vaccinia stage Venus 5.
`COCC#Cc1cnc2c(c1)C(=O)N([C@@H](C)CO)C[C@H](C)[C@H](CN(C)C(=O)Nc1c(C)noc1C)O2` gave Vaccinia stage 12 and Vaccinia stage Venus 7.
`O=C(c1ccc(F)cc1)N1CC(=O)N2[C@@H](CO)[C@@H](c3ccc(-c4ccccc4)cc3)[C@@H]2C1` gave Vaccinia stage -24 and Vaccinia stage Venus -21.
Screening C[C@@H]1CN([C@@H](C)CO)C(=O)c2cc(C3=CCCCC3)cnc2O[C@H]1CN(C)C(=O)Nc1ccccc1 returned Vaccinia stage -8 and Vaccinia stage Venus -7.
O=C(Cc1ccccc1)N[C@@H]1C=C[C@H](CC(=O)N2CCOCC2)O[C@@H]1CO was read as Vaccinia stage 2 and Vaccinia stage Venus 11.

An excerpt; the hit share may differ from the screen's.
